OX1R antag-1 – OX1R (human) antagonism. O43613. OX1R-expressing cells, FRET antagonist read-out. inhibition, % at 6.6 µM. 1.8% of 330,000 active. AID 485270; in the data active = inhibition mostly above about 38%, no sharp cut-off; inactive = mostly below about 40%;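 also: 0% = agonist challenge alone and 100% = reference antagonist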
Target sequence (O43613 whole entry, looked up): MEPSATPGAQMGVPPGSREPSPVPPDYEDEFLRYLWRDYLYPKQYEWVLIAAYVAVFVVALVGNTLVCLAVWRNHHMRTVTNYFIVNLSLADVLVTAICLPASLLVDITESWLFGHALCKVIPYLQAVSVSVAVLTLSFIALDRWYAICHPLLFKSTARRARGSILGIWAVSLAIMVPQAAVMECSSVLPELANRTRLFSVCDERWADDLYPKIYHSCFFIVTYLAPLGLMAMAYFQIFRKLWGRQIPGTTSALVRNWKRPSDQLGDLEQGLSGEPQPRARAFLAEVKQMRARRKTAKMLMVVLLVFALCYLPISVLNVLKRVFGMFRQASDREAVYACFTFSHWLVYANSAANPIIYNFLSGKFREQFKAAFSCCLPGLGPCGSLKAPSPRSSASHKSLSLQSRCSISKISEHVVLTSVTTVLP
OX1R antag-2 – human HCRTR1 antagonism; 0.43% of 330,000 active; AID 434989; CHO/OX1R cells, Fluo-8 calcium fluorescence, orexin A; inhibition, % at 5 µM;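 active = inhibition above its plate's threshold, mean inhibition of all tested compounds on the plate plus 3 SD, cut at about 37% in these data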;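 also: 0% = orexin A challenge wells and 100% = SB-334867-A antagonist wells; not every result past the cut was called active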
An asterisk follows results filed as active. These rows are one share of the data, and most or all hits are left out here.

SMILES	OX1R antag-1	OX1R antag-2
Cc1ccc(N2C(=O)C3C(c4ccccc4)(C2=O)C3(c2ccccc2)c2ccccc2)cc1 (stereo not given)	13	-22
O=[n+]1c2c(n([O-])c3c1CCCC3)CCCCC2	23	-3
Cc1nn(-c2ccccc2)c(C)c1/C=N\NS(=O)(=O)c1ccc(Cl)cc1	17	-17
Cn1nnc(NCc2cc(Br)ccc2OCc2ccccc2F)n1	11	-21
CCO[C@H]1OC(C(=O)N2CCCCCCC2)=C[C@@H](c2coc3ccccc3c2=O)[C@@H]1CCCO	21	-15
CCN(CC)C(=O)CSc1nc2ccsc2c(=O)n1CCCC(=O)NCCc1ccc(S(N)(=O)=O)cc1	11	-20
CCN(CC)S(=O)(=O)c1ccc(C(=O)NCCc2ccccn2)cc1	7	-11
Nc1ccc(S(N)(=O)=O)cc1	16	4
CCCC1(C(=O)OC)NC(c2ccc(OC)c(OC)c2)C2C(=O)N(c3cccc(C(C)=O)c3)C(=O)C21 (stereo not given)	23	-17
O=C(NC(Cc1ccccc1)c1ccc2c(c1)OCCCO2)c1ccc(F)cc1 (stereo not given)	11	-19
COc1ccc(-c2cn(CC3CCCCC3)nn2)cc1	32	-18
Oc1cccc(CCC2CCCCN2Cc2cn[nH]c2-c2ccc3c(c2)OCO3)c1 (stereo not given)	14	-26
Cc1cc(Br)cc(Br)c1OCC(=O)NNC(=O)c1ccoc1C	32	-13
O=S(=O)(NC1CCCCC1)c1ccc(F)c2ccccc12	5	-25
CN(C)S(=O)(=O)c1ccc(Cl)c(C(=O)NCc2ccco2)c1	3	-13
CCOC(=O)c1cccc(NC(=O)Cn2cc3c(n2)CCC(C)C3)c1 (stereo not given)	12	-19
Cc1ccnc(NC(=O)CCC(=O)N(CC(=O)NC2CCCCC2)Cc2ccccc2)c1	10	-16
N#C/C(Cn1c[n+](NC(=O)Nc2ccccc2)cn1)=N/O	18	-2
O=C(NNS(=O)(=O)c1ccccc1C(F)(F)F)c1cccc(S(=O)(=O)Nc2ccccc2Cl)c1	41	-19
NC(=O)c1nn(-c2ccccc2)nc1NC(=O)CN1CCCCC1	8	-50
CCOc1ccc(C(=O)NCCn2cc(SCC(=O)Nc3cc(C)on3)c3ccccc32)cc1	27	1
O=[N+]([O-])c1cccc(S(=O)(=O)c2ccc(N3CCCCC3)c([N+](=O)[O-])c2)c1	12	-27
Cc1ccc(S(=O)(=O)NC(c2ccccc2)C(C)C(=O)n2nc(C)cc2C)cc1 (stereo not given)	32	-7
Cc1ccc(C)c(N2CCN(CC3CCCCC3)CC2)c1	15	-22
COc1ccc(S(=O)(=O)N2CCOCC2)cc1NC(=O)c1cccc(Cl)c1	21	-1

Going on with the list:
SMILES	OX1R antag-1	OX1R antag-2
C=CCn1c(COc2cccc3ccc(C)nc23)nnc1SCC(N)=O	14	-14
CC1C=CCC2C(=O)N(c3ccccc3OC(=O)c3ccco3)C(=O)C12 (stereo not given)	2	-14
CCOC(=O)C1(C)/C(=N/Nc2ccccc2Cl)C(=O)C(=O)N1c1ccccc1 (stereo not given)	32	-35
O=C(O)c1cccc(-n2cccc2/C=C2\SC(=O)N(Cc3ccccc3F)C2=O)c1	9	-10
CN=C(c1ccc(C)cc1)n1c(=S)nc(-c2ccc(C)cc2)n(C)c1=S	24	-26
CN=C1C=C/C(=N/N=c2\ccn(O)cc2C)C=C1C	59*	-11
CN(C)c1ccc(C(=O)NC2(N3CCC3=O)CCCC2)cc1	-1	-24
C=C(C)C(=O)Nc1cccc(C2=NOC3(C2)C[C@@H](C(N)=O)N(C(=O)C2(C)CC2)C3)c1 (stereo not given in full)	16	2
Cc1cc(Br)ccc1OCC(=O)NNC(=O)c1cnccn1	7	1
COc1ccc(OC)c(NC(=O)C(CCSC)NS(=O)(=O)c2cccs2)c1 (stereo not given)	11	-25
CN(Cc1nc(-c2cnccn2)no1)Cc1n[nH]c2c1CCCCC2	8	-25
COc1cccc(-c2cc(C(=O)N3CCN(Cc4ccc5c(c4)OCO5)CC3)on2)c1	5	-22
Cc1cc[n+]2n1CC(O)C2 (stereo not given)	-2	-14
CC(=O)Nc1nc(C)c(C(C)=O)s1	-3	4
COc1cccc(NC(=O)N2CCC(NC(=O)C(Cc3cccc(C)c3)NC(C)=O)CC2)c1 (stereo not given)	-4	-13
CC(C)c1ccc(CNC(=O)C(=O)NCC2CCCO2)cc1 (stereo not given)	8	-19
CCN(CC)c1nc(C)nc2c1sc(=S)n2C	22	-25
COc1ccccc1-n1c(=S)[nH]c2c(sc(=S)n2-c2ccc(C)cc2C)c1=O	29	-15
O=C(NC(NCC1CCCO1)C(Cl)(Cl)Cl)c1cccc2ccccc12 (stereo not given)	40	-42
Nc1ccc(N2CCCCC2)c(S(=O)(=O)Nc2ccc(Cl)cc2)c1	14	-14
Cc1nnc(SCc2ccc(CC(=O)O)cc2)o1	17	-20
Cc1ccc(C)c(S(=O)(=O)N2CCN(C(=O)Cc3ccc(S(=O)(=O)N4CCOCC4)s3)CC2)c1	13	-23
CCOc1ccc(/C=N/NC(=O)CN2CCSCC2)cc1	9	-3
O=C1C=C(c2ccccc2)CCC1	17	-5
CC1CCC(NC(=O)CCNS(=O)(=O)c2ccc3c(c2)CCC(=O)N3)CC1 (stereo not given)	29	-13

7 compounds from above, ordered by the number in OX1R antag-2, low to high.
SMILES	OX1R antag-1	OX1R antag-2
COc1ccc(OC)c(NC(=O)C(CCSC)NS(=O)(=O)c2cccs2)c1 (stereo not given)	11	-25
CN(C)c1ccc(C(=O)NC2(N3CCC3=O)CCCC2)cc1	-1	-24
Cc1ccc(C)c(S(=O)(=O)N2CCN(C(=O)Cc3ccc(S(=O)(=O)N4CCOCC4)s3)CC2)c1	13	-23
C=CCn1c(COc2cccc3ccc(C)nc23)nnc1SCC(N)=O	14	-14
CN=C1C=C/C(=N/N=c2\ccn(O)cc2C)C=C1C	59*	-11
O=C(O)c1cccc(-n2cccc2/C=C2\SC(=O)N(Cc3ccccc3F)C2=O)c1	9	-10
O=C1C=C(c2ccccc2)CCC1	17	-5

(next part)
SMILES	OX1R antag-1	OX1R antag-2
CCCCSc1nnc2n(CCc3ccccc3)c(=O)c3c4c(sc3n12)COC(C)(C)C4	11	-7
CNC(=O)c1cccc(NC(=O)C(C)c2ccc3cc(OC)ccc3c2)c1 (stereo not given)	12	-98
COc1ccc2[nH]c(=O)c(CN(CCCN(C)C)C(=O)Nc3ccc(F)cc3)cc2c1	24	-2
Cc1cc(Nc2ccc3c(c2)OCCO3)c2cc(Cl)ccc2n1	26	-28
C=CCOC(=O)COc1ccc2c(C)c(C)c(=O)oc2c1C	18	-31
CC(=O)Nc1cccc([N+](=O)[O-])c1	30	-12
O=C1N=C(c2ccccc2)C(c2ccccc2)N1 (stereo not given)	5	-7
CCN(CC)C(=O)NC1CC2CCCC(C1)N2Cc1ccccc1 (stereo not given)	4	-5
COc1ccc(C(=O)Nc2cnn(Cc3ccc(Cl)cc3)c2)cc1OC	28	-22
Cc1ccc(C(c2nnnn2CCc2ccccc2)N2CCSCC2)cc1 (stereo not given)	22	-22
CCOc1ccc(NC(=O)C(=O)NCCN2CCN(C(=O)c3ccc(C)cc3)CC2)cc1	28	-27
COc1ccc(C(=O)Oc2ccc3c(C)cc(=O)oc3c2C(C)=O)cc1	-5	-12
N#CCC(=O)Nc1ccc(C(=O)NCc2ccccn2)cc1	2	-4
COCCN(C(=O)C1CC1)c1nnc(-c2cccc(C)c2)s1	42	-17
CCC(CC)C(=O)c1c[nH]c(C(=O)NCc2ccccc2OC)c1	-9	-18
CC1CCN(S(=O)(=O)c2ccc(C(=O)OCc3ccc4c(c3)OCO4)cc2)CC1	8	-4
Cc1cc(-c2ccccc2C(=O)NC2CCCCC2)on1	11	-12
CCOC(=O)C(=O)N1CCC(C(=O)OCC)CC1	13	0
O=C(NCc1ccc(F)cc1)C(=O)Nc1nc(C23CC4CC(CC(C4)C2)C3)cs1	21	-13
Cc1nc(N2CCC3(CC2)OCCO3)c2nnn(Cc3ccccc3F)c2n1	42	-23
CCOC(=O)CSc1n[nH]c(NC(=O)c2ccccc2)n1	1	-8
Cc1ccc2oc(=O)c3cc(C(=O)NCCCN4CC(C)CC(C)C4)sc3c2c1 (stereo not given)	23	-33
Cc1cccc(C2Nc3ccccc3C(=O)N2NC(=O)c2ccc([N+](=O)[O-])cc2)n1 (stereo not given)	39	-15
CCCC(=O)NC(c1ccc(OC)c(OC)c1)c1c(O)ccc2ccccc12 (stereo not given)	6	-38
COc1ccc(COCC(CC(C)C)N2CCN(C(=O)c3cccc(C(F)(F)F)c3)CCC2=O)cc1 (stereo not given)	11	-22

Shown as a hit in OX1R antag-1, among the entries above:
SMILES	OX1R antag-1	OX1R antag-2
CN=C1C=C/C(=N/N=c2\ccn(O)cc2C)C=C1C	59*	-11

Fetched by structure from the list above:
SMILES	OX1R antag-1	OX1R antag-2
Cc1nc(N2CCC3(CC2)OCCO3)c2nnn(Cc3ccccc3F)c2n1	42	-23
CCCCSc1nnc2n(CCc3ccccc3)c(=O)c3c4c(sc3n12)COC(C)(C)C4	11	-7

Next part.
SMILES	OX1R antag-1	OX1R antag-2
Cc1ccc(NS(=O)(=O)c2cccc(C(=O)O)c2)cc1S(=O)(=O)N1CCOCC1	3	-7
CCC(=O)N1C(Cc2ccccc2)COC1(C)C (stereo not given)	15	-9
CCc1ccc(/C(C)=N/NC(=O)C(O)c2ccccc2)s1 (stereo not given)	4	-11
COc1cccc(OC)c1C(=O)NC(C)CCc1ccccc1 (stereo not given)	15	-17
Cc1ccc(C)c(Oc2ccc(S(=O)(=O)N3CCN(C)CC3)cn2)c1	11	-26
COCCCNC(=O)CSc1nc2cc3c(cc2c(=O)n1CCCC(=O)NCc1ccc(OC)cc1)OCO3	18	-23
O=C1NN(c2ccccc2)C(=O)/C1=C/c1ccc(-c2cccc(C(=O)O)c2)o1	2	-10
O=C(N/N=C1\C/C(=N\NC(=O)c2ccncc2)c2ccccc21)c1ccncc1	37	-20
CCCCn1nnnc1SCC(=O)N(CC)CC	-1	-6
O=C(OCc1ccccc1)C1=[N+]([O-])OC(C(=O)OCc2ccccc2)C1c1c[nH]c2ccccc12 (stereo not given)	16	-6
Cn1cccc1CC(=O)N/N=C/C=C/c1ccco1	10	-15
COc1cc(/C=C2\C(=N)N3N=C(CC(=O)N4CCOCC4)SC3=NC2=O)cc(OC)c1OC	22	-5
CC(C)OC(=O)/C(=C/c1ccc(Br)cc1)NC(=O)c1ccco1	9	-22
COc1ccc2oc(C(=O)OCC(=O)N3C(C)CCCC3C)c(C)c2c1 (stereo not given)	42	-29
NC(=O)c1c(NC(=O)CCCC(=O)O)sc2c1CCCCCC2	10	3
COc1ccc(N2CC(C(=O)Nc3ccccc3N3CCCC3)CC2=O)c(OC)c1 (stereo not given)	-2	-21
COc1cccc(N(CC(=O)Nc2cccc(F)c2)S(C)(=O)=O)c1	4	-3
O=C(COC(=O)Cn1cnc2ccccc21)NCCCc1ccccc1	2	-5
CCOC(=O)C1CCN(C(=O)COc2ccc(N(C)S(=O)(=O)c3cccs3)cc2)CC1	1	-26
Cc1cnc(NC(=O)c2c(-c3ccccc3)noc2C)s1	18	-9
COCCNC(=O)C(C)OC(=O)c1nsc(Cl)c1Cl (stereo not given)	13	2
CCOC(=O)C1CCN(C/C=C/c2ccccc2OC)CC1	6	-14
OC1(c2ccc(Cl)cc2)CCN(Cc2c[nH]c3ccccc23)CC1	7	-19
CCc1nc(SCC(=O)Nc2ccc(F)cc2F)c2c(=O)n(C)c(=O)n(C)c2n1	19	-26
CCOC(=O)CCNC(=O)N1CCCC(CNS(=O)(=O)Cc2ccccc2)C1 (stereo not given)	11	-7

Next section:
SMILES	OX1R antag-1	OX1R antag-2
COc1ccc(OC)c(NC(=O)C2CCN(c3ncccn3)CC2)c1	7	-23
Cc1nn(-c2ccc(F)cc2)c(Cl)c1/C=N/NC(=O)c1cccc(S(=O)(=O)N2CCCC2)c1	8	-7
O=C(Nc1ccc(Cl)cn1)c1ccc(Oc2ccccc2)cc1	18	6
COc1ccc(CNC(=O)CCN2C(=S)NC(C)(C)CC2C)cc1 (stereo not given)	2	-18
CCCC(C)NC(=O)C1CCN(C(=O)C2CC(=O)N(c3ccc(C)cc3)C2)CC1 (stereo not given)	21	-12
CCNc1nc(Oc2ccc(Cl)cc2Cl)cc(C(F)(F)F)n1	7	-26
CCOC(=O)Cc1csc(NC(=O)c2cccc(Cl)c2)n1	8	-26
CCS(=O)(=O)c1ccc2c(c1)N(S(=O)(=O)c1cccs1)CC(C(=O)O)O2 (stereo not given)	2	-23
COc1ccccc1CCNC(=O)c1cc(COc2cccc(C(F)(F)F)c2)on1	15	-26
Cc1ccccc1S(=O)(=O)Cc1ccc(C(=O)N2CCN(C3CCCCC3)CC2)o1	17	-19
c1cncc(-c2nnc(C3CCCCC3)o2)c1	10	-32
CC1CN(c2cc(=O)n(-c3ccccc3)c(=O)[nH]2)CC(C)O1 (stereo not given)	1	7
CCOC(=O)c1c(C)c(C)n(Cc2ccc(OC)c(OC)c2)c1C	43	12
Cc1ccc(N(Cc2cc3cc(C)ccc3[nH]c2=O)C(=O)c2cccs2)cc1	9	-16
C=CCNC(=S)NNC(=O)C(CCCC)CC(O)COCC(C)C (stereo not given)	-7	-10
C/C(Cc1ccccc1)=N\NC(=O)CNC(=O)c1ccc(C(C)(C)C)cc1	20	-30
CSc1nc2ccc(NC(=O)C3=NN(c4ccccc4)C(=O)CC3)cc2s1	26	-22
O=C1CS/C(=N\N=C\c2ccccc2Cl)N1CC1CC1	25	-14
O=C(Cn1nc(-c2cccs2)ccc1=O)Nc1ccc(Br)cc1	18	-32
CCCCc1nnc(NC(=O)CCSc2ccccc2)s1	22	-28
CCN(CC)C(=O)COc1ccc(/C(C)=N/NC(=O)c2ccccc2O)cc1	5	-23
CCN(CC)S(=O)(=O)c1ccc2c(c1)N(CC(=O)NCc1ccco1)C(=O)CO2	0	-14
